Source: PubChem
Ran importin: inhibitors of Ran–importin-beta complex formation, primary screen, biochemical, CFP-Ran/YFP-importin-beta FRET, RCC1, cell-free (AID 434961). 7,700 tested, 0.2% active. inhibition, %. CFP-Ran/YFP-importin-beta FRET, cell-free; active compounds read high;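 active = more than half of the replicate wells above 15% inhibition; inconclusive = exactly half above it; inactive = fewer than half above it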;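 note: 0% = DMSO wells and 100% inhibition = RanGDP control wells on each plate; stock of unstated strength diluted about 400-fold; mean of two wells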
* marks the source's active call; other numbers are inactive results; ? = inconclusive. Some of the compounds tested (hit frequency here may not be typical).

Ran importin	SMILES
-2.5	C[C@@H]1CCCCO[C@@H](CN(C)C(=O)Cc2ccccc2)[C@@H](C)CN([C@@H](C)CO)C(=O)c2cc(NC(=O)Nc3ccc(F)cc3)ccc2O1
1.7	C[C@H]1CN([C@@H](C)CO)C(=O)Cc2cc(NC(=O)CCN3CCOCC3)ccc2O[C@H]1CN(C)Cc1ccncc1
0.1	C[C@@H]1CN([C@H](C)CO)C(=O)Cc2cc(NC(=O)NC3CCCCC3)ccc2O[C@H]1CN(C)S(=O)(=O)c1ccccc1
-2.0	C[C@H](CO)N1C[C@H](C)[C@@H](CN(C)Cc2ccc(C(F)(F)F)cc2)OCc2cn(nn2)CCCC1=O
-3.9	COc1ccc(NC(=O)Nc2cccc3c2O[C@@H](CN(C)CC2CC2)[C@H](C)CN([C@H](C)CO)C3=O)cc1
4.2	C[C@@H]1CN([C@@H](C)CO)C(=O)Cc2cc(NC(=O)Nc3ccccc3)ccc2O[C@@H]1CN(C)C(=O)Nc1ccccc1
2.4	C[C@@H]1CN([C@H](C)CO)C(=O)Cc2cc(NC(=O)Cc3ccccc3)ccc2O[C@H]1CN(C)S(=O)(=O)c1cccs1
1.2	CNC[C@@H]1Oc2ccc(NC(=O)Nc3c(C)noc3C)cc2C(=O)N([C@@H](C)CO)C[C@H]1C
7.7	C[C@H]1CN([C@@H](C)CO)C(=O)c2cccc(NC(=O)NC3CCCCC3)c2O[C@@H]1CN(C)C(=O)Nc1ccccc1
-2.1	COc1ccc(NC(=O)Nc2cccc3c2O[C@H](CN(C)S(=O)(=O)c2cccs2)[C@H](C)CN([C@@H](C)CO)C3=O)cc1
-0.3	C[C@H]1CN([C@@H](C)CO)C(=O)c2cccc(NS(=O)(=O)c3cn(C)cn3)c2O[C@H]1CN(C)CC1CC1
-19.8	COc1ccc(CN(C)C[C@@H]2Oc3ccc(NC(=O)Nc4ccc5c(c4)OCO5)cc3CC(=O)N([C@H](C)CO)C[C@H]2C)cc1
5.9	Cc1ccc(S(=O)(=O)Nc2ccc3c(c2)CC(=O)N([C@H](C)CO)C[C@H](C)[C@@H](CN(C)C(=O)Nc2c(C)noc2C)O3)cc1
?	C[C@@H]1CCCCO[C@H](CN(C)C)[C@H](C)CN([C@H](C)CO)C(=O)c2cc(NS(C)(=O)=O)ccc2O1
3.5	C[C@@H]1CN([C@@H](C)CO)C(=O)Cc2cc(NC(=O)Cc3ccccc3)ccc2O[C@H]1CN(C)Cc1ccc(C(F)(F)F)cc1
-1.4	C[C@@H]1CN([C@H](C)CO)C(=O)c2cccc(NS(C)(=O)=O)c2O[C@H]1CN(C)C(=O)NC1CCCCC1
-1.7	C[C@H]1CN([C@@H](C)CO)C(=O)Cc2cc(NC(=O)Nc3cccc4ccccc34)ccc2O[C@@H]1CN(C)C(=O)Nc1cccc2ccccc12
1.4	Cc1noc(C)c1NC(=O)Nc1ccc2c(c1)CC(=O)N([C@@H](C)CO)C[C@H](C)[C@H](CN(C)S(=O)(=O)c1cn(C)cn1)O2
-3.4	Cc1noc(C)c1NC(=O)Nc1cccc2c1O[C@@H](CN(C)S(=O)(=O)c1cccs1)[C@@H](C)CN([C@H](C)CO)C2=O
3.3	CC(C)NC(=O)Nc1ccc2c(c1)C(=O)N([C@@H](C)CO)C[C@@H](C)[C@@H](CN(C)C(=O)Nc1ccccc1)OCCCC[C@@H](C)O2
-0.5	C[C@H](CO)N1C[C@H](C)[C@H](CN(C)C)Oc2ccc(NC(=O)CCC(F)(F)F)cc2C1=O
0.7	C[C@@H]1CCCCO[C@H](CN(C)S(=O)(=O)c2ccccc2)[C@@H](C)CN([C@H](C)CO)C(=O)c2cc(NC(=O)CCC(F)(F)F)ccc2O1
6.9	C[C@H]1CN([C@@H](C)CO)C(=O)Cc2cc(NC(=O)NC3CCCCC3)ccc2O[C@H]1CN(C)C(=O)Nc1ccccc1
2.2	C[C@@H]1CN([C@@H](C)CO)C(=O)c2cccc(NC(=O)c3nc4ccccc4s3)c2O[C@H]1CN(C)C(=O)NC1CCCCC1
?	C[C@@H]1CCCCO[C@@H](CN(C)C(=O)Cc2ccccc2)[C@H](C)CN([C@H](C)CO)C(=O)c2cc(NC(=O)Nc3ccccc3)ccc2O1
4.1	Cc1noc(C)c1NC(=O)N(C)C[C@H]1Oc2ccc(NC(=O)Cc3ccccc3)cc2C(=O)N([C@H](C)CO)C[C@H]1C
-2.9	C[C@@H]1CN([C@H](C)CO)C(=O)CCCn2cc(nn2)CO[C@@H]1CN(C)C(=O)Nc1ccc(-c2cccs2)cc1
1.0	Cc1noc(C)c1S(=O)(=O)Nc1ccc2c(c1)CC(=O)N([C@@H](C)CO)C[C@H](C)[C@H](CN(C)C(=O)Nc1ccccc1)O2
-0.8	COc1ccc(S(=O)(=O)N(C)C[C@@H]2Oc3c(NC(=O)c4cnccn4)cccc3C(=O)N([C@@H](C)CO)C[C@H]2C)cc1
-2.9	C[C@@H]1CN([C@@H](C)CO)C(=O)c2cc(NC(=O)Nc3ccc4c(c3)OCO4)ccc2O[C@@H]1CN(C)C(=O)NC1CCCCC1
1.5	C[C@@H]1CN([C@H](C)CO)C(=O)c2cccc(N(C)C)c2O[C@H]1CN(C)C(=O)Nc1ccc(C(F)(F)F)cc1
0.1	C[C@@H]1CN([C@H](C)CO)C(=O)c2cccc(NS(C)(=O)=O)c2O[C@H]1CN(C)C
6.5	C[C@H](CO)N1C[C@H](C)[C@H](CN(C)Cc2ccc3c(c2)OCO3)Oc2ncc(Br)cc2C1=O
?	Cc1noc(C)c1NC(=O)N(C)C[C@H]1Oc2c(cccc2N(C)C)C(=O)N([C@H](C)CO)C[C@@H]1C
-4.8	C[C@H]1CN([C@@H](C)CO)C(=O)Cc2cc(NC(=O)NC3CCCCC3)ccc2O[C@H]1CN(C)Cc1ccncc1
2.9	C[C@H](CO)N1C[C@H](C)[C@@H](CN(C)Cc2ccc(-c3ccccc3)cc2)Oc2ccc(NC(=O)CCN3CCOCC3)cc2CC1=O
-3.0	C[C@H](CO)N1C[C@H](C)[C@@H](CN(C)C)Oc2ccc(NC(=O)C3CC3)cc2CC1=O
?	C[C@H](CO)N1C[C@H](C)[C@@H](CN(C)C(=O)Nc2cccc3ccccc23)Oc2ccc(NC(=O)Nc3cccc4ccccc34)cc2CC1=O
-5.3	C[C@@H]1CN([C@@H](C)CO)C(=O)Cc2cc(NC(=O)C3CC3)ccc2O[C@@H]1CN(C)Cc1ccc(Cl)c(Cl)c1
-2.8	C[C@H](CO)N1C[C@H](C)[C@H](CN(C)C(=O)NC2CCCCC2)Oc2ccc(NS(C)(=O)=O)cc2CC1=O
-0.9	C[C@@H]1CN([C@@H](C)CO)C(=O)CCCn2cc(nn2)CO[C@@H]1CN(C)S(=O)(=O)c1ccc(-n2cccn2)cc1
-0.8	Cc1noc(C)c1S(=O)(=O)Nc1ccc2c(c1)C(=O)N([C@H](C)CO)C[C@@H](C)[C@H](CN(C)C(=O)Nc1ccc(F)cc1)O2
?	C[C@H](CO)N1C[C@H](C)[C@@H](CN(C)Cc2ccccc2)Oc2c(NS(C)(=O)=O)cccc2C1=O
3.1	C[C@@H]1CN([C@@H](C)CO)C(=O)Cc2cc(NC(=O)Cn3cnnn3)ccc2O[C@@H]1CN(C)C(=O)Nc1ccccc1
-1.6	CC(C)NC(=O)Nc1ccc2c(c1)C(=O)N([C@@H](C)CO)C[C@H](C)[C@H](CN(C)Cc1ccccc1)OCCCC[C@H](C)O2
6.3	Cc1noc(C)c1NC(=O)N(C)C[C@@H]1OCCCC[C@@H](C)Oc2ccc(N(C)C)cc2C(=O)N([C@H](C)CO)C[C@@H]1C
5.4	C[C@@H]1CN([C@@H](C)CO)C(=O)c2cccc(NS(C)(=O)=O)c2O[C@@H]1CN(C)CC1CC1
-1.9	C[C@H]1CN([C@@H](C)CO)C(=O)Cc2cc(NC(=O)CCN3CCOCC3)ccc2O[C@H]1CN(C)C
0.2	C[C@H](CO)N1C[C@H](C)[C@H](CN(C)Cc2ccc(C(=O)O)cc2)Oc2c(NC(=O)Nc3ccc(C(F)(F)F)cc3)cccc2C1=O
1.4	C[C@H]1CN([C@@H](C)CO)C(=O)c2cc(NC(=O)Nc3ccc4c(c3)OCO4)ccc2O[C@@H]1CN(C)Cc1ccncc1

The list goes on:
Ran importin	SMILES
-3.4	C[C@@H]1CN([C@H](C)CO)C(=O)c2cccc(NS(=O)(=O)c3ccc(Cl)cc3)c2O[C@H]1CN(C)CC1CC1
3.6	C[C@@H]1CN([C@@H](C)CO)C(=O)Cc2cc(N(C)C)ccc2O[C@H]1CN(C)C(=O)Nc1ccccc1
3.0	C[C@@H]1CN([C@@H](C)CO)C(=O)c2cc(NC(=O)Cc3ccccc3)ccc2O[C@@H](C)CCCCO[C@@H]1CN(C)C(=O)CCC(F)(F)F
2.1	C[C@@H]1CN([C@H](C)CO)C(=O)c2cc(N(C)C)ccc2O[C@H]1CN(C)Cc1ccccc1
0.5	Cc1noc(C)c1NC(=O)N(C)C[C@@H]1OCCCC[C@H](C)Oc2ccc(NS(=O)(=O)c3cn(C)cn3)cc2C(=O)N([C@H](C)CO)C[C@@H]1C
-3.6	C[C@@H]1CN([C@H](C)CO)C(=O)c2cccc(NS(=O)(=O)c3ccccc3)c2O[C@@H]1CN(C)C(=O)Nc1cccc2ccccc12
4.5	C[C@H]1CN([C@@H](C)CO)C(=O)c2cccc(NC(=O)C3CCOCC3)c2O[C@H]1CN(C)Cc1ccc2c(c1)OCO2
-0.5	Cc1noc(C)c1S(=O)(=O)Nc1ccc2c(c1)CC(=O)N([C@@H](C)CO)C[C@@H](C)[C@H](CN(C)C(=O)Nc1ccc(F)cc1)O2
1.1	C[C@@H]1CN([C@@H](C)CO)C(=O)Cc2cc(NC(=O)CCC(F)(F)F)ccc2O[C@H]1CN(C)S(=O)(=O)c1ccccc1
1.8	Cc1noc(C)c1S(=O)(=O)N(C)C[C@H]1Oc2ccc(NC(=O)CCCN(C)C)cc2C(=O)N([C@H](C)CO)C[C@@H]1C

Grouped by structure: those above containing a CF3 group (8)
Ran importin	SMILES
-2.0	C[C@H](CO)N1C[C@H](C)[C@@H](CN(C)Cc2ccc(C(F)(F)F)cc2)OCc2cn(nn2)CCCC1=O
3.5	C[C@@H]1CN([C@@H](C)CO)C(=O)Cc2cc(NC(=O)Cc3ccccc3)ccc2O[C@H]1CN(C)Cc1ccc(C(F)(F)F)cc1
-0.5	C[C@H](CO)N1C[C@H](C)[C@H](CN(C)C)Oc2ccc(NC(=O)CCC(F)(F)F)cc2C1=O
0.7	C[C@@H]1CCCCO[C@H](CN(C)S(=O)(=O)c2ccccc2)[C@@H](C)CN([C@H](C)CO)C(=O)c2cc(NC(=O)CCC(F)(F)F)ccc2O1
1.5	C[C@@H]1CN([C@H](C)CO)C(=O)c2cccc(N(C)C)c2O[C@H]1CN(C)C(=O)Nc1ccc(C(F)(F)F)cc1
0.2	C[C@H](CO)N1C[C@H](C)[C@H](CN(C)Cc2ccc(C(=O)O)cc2)Oc2c(NC(=O)Nc3ccc(C(F)(F)F)cc3)cccc2C1=O
3.0	C[C@@H]1CN([C@@H](C)CO)C(=O)c2cc(NC(=O)Cc3ccccc3)ccc2O[C@@H](C)CCCCO[C@@H]1CN(C)C(=O)CCC(F)(F)F
1.1	C[C@@H]1CN([C@@H](C)CO)C(=O)Cc2cc(NC(=O)CCC(F)(F)F)ccc2O[C@H]1CN(C)S(=O)(=O)c1ccccc1

Other results follow:
Ran importin	SMILES
1.3	C[C@@H]1CCCCO[C@H](CN(C)Cc2ccc3c(c2)OCO3)[C@H](C)CN([C@H](C)CO)C(=O)c2cc(NS(=O)(=O)c3ccccc3)ccc2O1
?	C[C@H](CO)N1C[C@H](C)[C@@H](CN(C)S(=O)(=O)c2cccs2)Oc2ccc(NC(=O)C3CC3)cc2C1=O
-2.5	C[C@@H]1CN([C@H](C)CO)C(=O)c2cc(NC(=O)NC3CCCCC3)ccc2O[C@@H]1CN(C)Cc1ccc(C(=O)O)cc1
1.2	C[C@H](CO)N1C[C@H](C)[C@@H](CN(C)C(=O)NC2CCCCC2)Oc2ccc(NC(=O)NC3CCCCC3)cc2CC1=O
2.0	CC(C)NC(=O)N(C)C[C@@H]1OCCCC[C@@H](C)Oc2ccc(NC(=O)Nc3cccc4ccccc34)cc2C(=O)N([C@@H](C)CO)C[C@@H]1C
4.4	COc1ccc(S(=O)(=O)Nc2ccc3c(c2)CC(=O)N([C@H](C)CO)C[C@H](C)[C@@H](CN(C)S(=O)(=O)c2ccc(OC)cc2)O3)cc1
?	C[C@@H]1CN([C@H](C)CO)C(=O)Cc2cc(NC(=O)Cc3cn(C)c4ccccc34)ccc2O[C@H]1CN(C)S(=O)(=O)c1cccs1
1.5	C[C@H]1CN([C@@H](C)CO)C(=O)CCCn2cc(nn2)CO[C@@H]1CN(C)S(=O)(=O)c1ccc(Oc2ccccc2)nc1
6.1	C[C@@H]1CN([C@H](C)CO)C(=O)CCCn2cc(nn2)CO[C@H]1CN(C)S(=O)(=O)c1ccc(Oc2ccccc2)cc1
3.4	Cc1noc(C)c1NC(=O)N(C)C[C@H]1Oc2ccc(NC(=O)CCC(F)(F)F)cc2CC(=O)N([C@@H](C)CO)C[C@H]1C
0.5	COc1ccc(S(=O)(=O)N(C)C[C@H]2Oc3ccc(NC(=O)Cc4cn(C)c5ccccc45)cc3C(=O)N([C@@H](C)CO)C[C@@H]2C)cc1
7.8	C[C@@H]1CN([C@@H](C)CO)C(=O)c2cc(NC(=O)CCC(F)(F)F)ccc2O[C@H]1CN(C)C(=O)Nc1ccccc1
-6.0	CC(C)NC(=O)Nc1ccc2c(c1)C(=O)N([C@H](C)CO)C[C@H](C)[C@@H](CN(C)Cc1ccccc1)O2
-4.3	C[C@@H]1CN([C@@H](C)CO)C(=O)Cc2cc(NC(=O)NC3CCCCC3)ccc2O[C@H]1CN(C)Cc1ccc2c(c1)OCO2
0.0	COc1ccc(CN(C)C[C@H]2Oc3c(NC(=O)c4nc5ccccc5s4)cccc3C(=O)N([C@@H](C)CO)C[C@@H]2C)cc1
-5.3	C[C@H]1CN([C@@H](C)CO)C(=O)c2cc(NS(C)(=O)=O)ccc2O[C@H]1CN(C)C(=O)Nc1ccc(F)cc1
